# Screening results (PubChem)
# Sa growth 42C – inhibitors of Staphylococcus aureus growth at 42 °C | S. aureus RN4220 growth, OD600, 20 h; hits give low values | relative growth, % (concentration not given with the values) | hit rate 0.53% among 170,000 | AID 720641;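 active = growth at 42 °C up to 50% and 20 or more points under that at 30 °C, or under 10% at both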;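 also: 300 nL library stock went into each well; scaled to the means of positive and negative controls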
# HCMV NEC inh – inhibitors of HCMV UL50-UL53 nuclear egress complex interaction; hit rate 0.15% among 190,000; HTRF UL50-UL53 interaction, normalized percent inhibition; inhibition, % (test concentration not listed); AID 1918969;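 active = both replicates at 50% or more, plus weaker picks with an unusually low signal ratio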;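 also: stock transfer was 100 nL into about 20 µL; 0% = negative control wells and 100% = wells with untagged competitor protein; inactives centre near -12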
# GIV-Gai inh – GIV-Galpha-i interaction inhibition | Galpha-i3/FITC-GIV peptide fluorescence polarization, 90 min; hits give low values; scaled: aluminum fluoride 0%, vehicle 100% | P08753 | AID 1224905 | hit rate 0.42% among 210,000 | percent of control (FP), % (test concentration not listed);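 active = replicate mean at 85% of control or lower, very high polarization wells dropped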;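 also: wells of about 15 µL received 100 nL stock; the first replicate is given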
# Target sequence (P08753 whole entry, looked up): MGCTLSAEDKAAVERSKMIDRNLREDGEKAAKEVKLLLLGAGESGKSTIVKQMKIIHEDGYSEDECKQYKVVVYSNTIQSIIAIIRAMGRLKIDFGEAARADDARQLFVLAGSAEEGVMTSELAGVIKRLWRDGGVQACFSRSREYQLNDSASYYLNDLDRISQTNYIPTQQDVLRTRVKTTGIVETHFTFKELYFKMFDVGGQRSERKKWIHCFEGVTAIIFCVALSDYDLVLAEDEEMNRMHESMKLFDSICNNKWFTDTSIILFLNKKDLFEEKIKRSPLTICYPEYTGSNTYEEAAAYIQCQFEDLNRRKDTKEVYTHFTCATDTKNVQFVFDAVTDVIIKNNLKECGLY
# Sa growth 42C second temp – also measured in Sa growth 42C; calls as there; relative growth, %; measured here: growth at 30 °C;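 optical density after 20 h as mean of two plates; 100% = untreated growth and lower means inhibition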
# * marks the source's active call; other numbers are inactive results; nt = not tested or not shown; & = joins results of further samples. Rows were taken by chance, and some 0.8% of all compounds hit somewhere here.
SMILES,Sa growth 42C,Sa growth 42C second temp,HCMV NEC inh,GIV-Gai inh
O=C(c1c2c(nc3ccccc13)C(=O)N(C1CCCCC1)C2)N1CCCCCC1,97,91,-31,105
Cc1ccc(CNC(=O)CN2N=C(c3ccccc3)CCC2=O)cc1,93,85,nt,100
N#C/C(=N\Nc1ccccc1C(F)(F)F)C(=N)N1CCOCC1,90,89,1,103
CCCC(=O)NCC(c1ccc2c(c1)OCO2)N1CCN(c2ccc(F)cc2)CC1 (stereo not drawn),94,92,nt,93
O=C(c1cc2c(s1)CCCC2)N1CCN(CCO)CC1,88,102,10,nt
Cn1c(=O)c2c(nc3oc(C(C)(C)C)cn32)n(C)c1=O,88,100,0,108
COc1ccc(CN2CCCN(Cc3ccc(OC)cc3)C2c2ccc(OC)cc2)cc1,112,97,-12,109
Cc1ccc(COC2CN(C(=O)C3CC3)C2)cc1,nt,nt,-6,100
COc1cc(/C=C2\N=C(c3ccc(C)c(C)c3)OC2=O)cc(Br)c1OC(C)=O,nt,nt,-25,110
c1ccc(-n2nnnc2NCC(c2cccs2)c2c[nH]c3ccccc23)cc1 (stereo not drawn),96,97,-31,nt
CCOC(=O)c1sc(NC(C)=O)nc1-c1ccccc1,101,88,-8,105
CNC(=O)NCc1c(F)cccc1Cl,85,81,-29,105
O=C1C=C(Nc2ccc(I)cc2)CCC1,96,98,22,nt
COCCn1ccc2c(OCC(=O)NCc3ccc(F)cc3)cccc2c1=O,126,84,nt,98
O=C1CCSc2c1cccc2C(=O)NCCCN1CCOCC1,77,93,-26,106

# Another view of part of the listing above.
Structure: CCOC(=O)c1sc(NC(C)=O)nc1-c1ccccc1
  Sa growth 42C = 101	Sa growth 42C second temp = 88	HCMV NEC inh = -8	GIV-Gai inh = 105
Structure: c1ccc(-n2nnnc2NCC(c2cccs2)c2c[nH]c3ccccc23)cc1 (stereo not drawn)
  Sa growth 42C = 96	Sa growth 42C second temp = 97	HCMV NEC inh = -31	GIV-Gai inh = nt
Structure: O=C1C=C(Nc2ccc(I)cc2)CCC1
  Sa growth 42C = 96	Sa growth 42C second temp = 98	HCMV NEC inh = 22	GIV-Gai inh = nt
Structure: CNC(=O)NCc1c(F)cccc1Cl
  Sa growth 42C = 85	Sa growth 42C second temp = 81	HCMV NEC inh = -29	GIV-Gai inh = 105

# Continued:
SMILES,Sa growth 42C,Sa growth 42C second temp,HCMV NEC inh,GIV-Gai inh
CCc1ccc(NC(=O)c2cccc3c2C(=O)N(CCOC)C3)cc1,93,80,nt,104
CC(=O)NCCn1c(SCC(=O)Nc2ccccc2Cl)nc2ccccc2c1=O,93,82,5,99
Cc1ccc(OCc2nnc(SCC(=O)Nc3ccccc3C(C)C)o2)cc1,89,84,nt,102
CC(C)(C)c1ccc2c(c1)OCC(C(=O)O)O2 (stereo not drawn),103,97,-8,104
O=C1CCCCCN1Cc1n[nH]c(=S)o1,81,90,17,nt
NC(=O)CCSc1n[nH]c(=S)s1,85,87,-24,nt
CN(C(=O)CN1CCOCC1)n1cnc2ccsc2c1=O,100,60,-20,109
CC1=CCC2C(=O)N(c3cc(C)on3)C(=O)C2C1 (stereo not drawn),91,86,-22,99
Cc1ccc(C)c(NC(=O)c2ccc3c(c2)CCN3S(=O)(=O)c2ccccc2)c1,102,86,-16,102
O=C(C1CCCCC1)N1N=C2/C(=C/c3ccco3)CCCC2C1c1ccco1 (stereo not drawn),105,93,-36,nt
CCc1ccc(NC(=O)C2NC(=O)CC2c2ccccc2)cc1 (stereo not drawn),82,91,nt,105
CCC(=O)N1CCc2cc(S(=O)(=O)CCC(=O)Nc3ccc4c(c3)OCCO4)ccc21,91,82,-3,99
Fc1ccc(-n2cc(-c3ccccc3)c3c(NCc4ccccc4)ncnc32)cc1,103,97,nt,109
CCc1ccc(NC(=O)C(C)Nc2ccc3c(c2)OCCO3)cc1 (stereo not drawn),87,78,-13,nt
O=C1c2ccc(F)cc2C(=O)N1N1CCOCC1,107,91,-17,nt

# 3 entries out of the list, ordered by molecular weight, high to low.
SMILES,Sa growth 42C,Sa growth 42C second temp,HCMV NEC inh,GIV-Gai inh
Cc1ccc(OCc2nnc(SCC(=O)Nc3ccccc3C(C)C)o2)cc1,89,84,nt,102
N#C/C(=N\Nc1ccccc1C(F)(F)F)C(=N)N1CCOCC1,90,89,1,103
Cc1ccc(COC2CN(C(=O)C3CC3)C2)cc1,nt,nt,-6,100

# The list continues:
SMILES,Sa growth 42C,Sa growth 42C second temp,HCMV NEC inh,GIV-Gai inh
Cc1cc(C)c(Cn2c(=O)n(CCC(=O)NCc3ccc4c(c3)OCO4)c(=O)c3ccccc32)c(C)c1,89,87,-11,101
CCc1nc(N=C(N)N)nc2ccc(C)cc12,114,108,0,108
O=C(CN1C(=O)COc2ccccc2C1=O)c1cccc(S(=O)(=O)N2CCCC2)c1,nt,nt,-14,104
O=C(CSc1c2c(nc3ccc(Cl)cc13)CCCC2)N1CCCCC1,100,69,-8,105
CCOC(=O)c1c(C)oc2ccc(OC(=O)COc3c(F)c(F)c(F)c(F)c3F)cc12,nt,nt,-20,105
Cc1ccc2c(c1)N(CC(=O)NC(C)C)C(=O)CO2,nt,nt,-29,98
CCNC(=O)NC1CCN(c2ncccn2)CC1,nt,nt,-9,106
COc1ccc(NC(=O)c2cc3cc(C)ccc3n2C)cc1,103,88,-27,96
CCn1c(SCc2cccc3ccccc23)nnc1-c1ccco1,99,68,9,nt
Cc1ccc(CNC(=O)c2ccc3c(c2)NC(=O)C(CS(=O)(=O)Cc2cccc(C)c2)N3)cc1 (stereo not drawn),93,96,nt,169
Cc1cc(N2C(=O)CS/C2=C(/C#N)C(=O)NC2CCCCC2)ccc1Cl,139,95,-11,nt
COc1ccc(NC(=O)Cn2cnc3c(nnn3Cc3ccccc3F)c2=O)cc1OC,114,82,-4,94
Cc1cc(-n2c(C)cc(C(=O)CSc3ncnc4ccccc34)c2C)no1,83,95,-30,nt
Cc1nn(-c2ccc(N3CCCCC3)nn2)c(C)c1CCC(=O)N1CCN(c2ccccn2)CC1,nt,nt,-37,106
Cc1ccccc1C(=O)N1CCC(=O)Nc2ccccc21,nt,nt,-7,104
COC(=O)C1CC2=CC(=O)CCC2(C)C2C(O)CC3(C)C(CCC34CCC(=O)O4)C12 (stereo not drawn),95,84,7,105
COc1ccccc1CNc1nc2ccc(Cl)cc2n2cnnc12,96,97,10,108
CCc1nn2c(-c3ccco3)ccnc2c1-c1ccc(F)cc1,91,95,-2,104
CCOc1ccc(CCNC(=O)C2CCC(=O)N2C2CCCCC2)cc1OCC (stereo not drawn),93,93,-8,106
Cc1ccc(NC(=O)NC(NC(=O)Cc2ccccc2)(C(F)(F)F)C(F)(F)F)cc1C,92,84,-4,nt
CSC1=N/C(=C\c2ccccc2)C(=O)S1,113,76,-19,107
Cc1cccc(NC(=O)COc2ccc3oc4c(c3c2)CCCC4)c1,110,99,-2,98
CCc1ccc(NC(=O)CC#N)cc1,109,88,-15,nt
CC(C)NCc1nc(-c2ccc(Cl)cc2)no1,103,97,5,99
COc1ccc(N(C(=O)c2ccc(Cl)cc2)S(=O)(=O)c2ccc(C)cc2)cc1,106,89,-22,104
Cc1ccccc1Nc1nnc(-c2ccc(C(=O)NCCO)cc2)c2ccccc12,111,88,nt,96
CC1=NN(c2cccc(C(=O)O)c2)C(=O)/C1=C\c1ccc(N2CCN(C)CC2)c([N+](=O)[O-])c1,nt,nt,-8,103
Cc1[nH]c(C(=O)N2CCC(CC(=O)NCCCN3CCN(c4ccc(F)cc4)CC3)CC2)c(C)c1C,nt,nt,12,106
COc1ccc(CCNC(=O)CN2C(=O)COc3ccc(C)cc32)cc1OC,108,91,-1&-28,102&101
CCCCNC(=O)CN(C)S(=O)(=O)c1ccc2c(c1)c(=O)n(C)c(=O)n2C,nt,nt,1,102
Cc1ccccc1OCc1cc(=O)n2c(-c3ccccc3)csc2n1,105,86,-21,103
CC(C)(C)OC(=O)N1Cc2ccccc2CC1C(=O)NCc1cccs1 (stereo not drawn),100,80,3,103
O=C(O)Cn1ncc2c3ccccc3n(Cc3ccc(Cl)cc3)c2c1=O,80,82,-6,192
CC(C)(C)C(=O)CSc1nc2ccsc2c(=O)n1Cc1ccccc1Cl,93,95,nt,101
O=C(CN1CCN(Cc2ccccc2)C(=O)C1=O)Nc1nc2ccccc2s1,nt,nt,-4,102
Cc1nc2ccn(Cc3cccnc3)c(=O)c2cc1C(=O)NCc1ccccc1,92,93,nt,97
Cc1ccc(CNC(=O)c2ccc3c(c2)NC(=O)C(CS(=O)(=O)Cc2cccc(F)c2)N3)cc1 (stereo not drawn),88,98,nt,169
Cc1ccc(NC(=O)C(Cc2ccccc2)NS(=O)(=O)c2ccc3c(c2)c(=O)n(C)c(=O)n3C)cc1 (stereo not drawn),117,87,-15,109
O=C(COc1ccc(Cl)cc1)Nc1ccc2oc(-c3c(F)c(F)c(F)c(F)c3F)nc2c1,114,80,4,107
O=C(O)CSc1nccc2ccccc12,106,83,-36,101
CC(C)Cc1nn2c(=O)cc(COC(=O)c3ccccc3NC(=O)c3ccccc3)nc2s1,98,103,nt,106
COC(=O)CSc1nc(N2CCOCC2)c2c(c1C#N)CC(C)(C)OC2,89,90,-5,97
COc1ccc(C(=O)Oc2ccc3oc(=O)sc3c2)cc1,103,84,-31,98
CCn1cc(C(=O)NN)c(=O)c2cc(F)c(NN)cc21,102,56,nt,97
CC1=NN(c2cc(Cl)cc(Cl)c2)C(=O)CC1,91,93,-12,96
Cc1ccc(-n2ncc(-c3cc(C(=O)Nc4ccc5c(c4)OCCO5)c4cc(C)ccc4n3)c2C)cc1,nt,nt,-41,99
O=c1[nH]c2cc3c(cc2c(=O)n1CCCc1nc(-c2ccncc2)no1)OCO3,nt,nt,1,105
CC(C)(C)c1ccc(C(=O)Nc2cccc(C(F)(F)F)c2)cc1,81,71,nt,97
CCOC(=O)N1CCN(C(=O)C(CC(C)C)NC(=O)C2CCCCC2)CC1 (stereo not drawn),117,90,-12,101
COc1ccc(-n2ccnc(NCc3cccs3)c2=O)cc1OC,103,88,nt,105
N#Cc1ccccc1NC(=O)CSc1nnc(N)s1,100,90,-32,101
Cc1nc2cc(NC(=O)c3ccc(S(=O)(=O)N(C)C)cc3)ccc2s1,nt,nt,-8,102
Cc1cccc(NC(=S)N(C2CCCCC2)C(C)c2ccco2)c1 (stereo not drawn),98,85,-7,103
COc1ccc(CNCc2ccco2)cc1,94,81,-6,nt
O=c1oc2ccccc2c(O)c1Sc1ccccc1,99,71,nt,97
O=C(c1cc(-c2ccncc2)n[nH]1)N1CCCC(C(=O)N2CCc3ccccc3C2)C1 (stereo not drawn),nt,nt,-26,104
Cc1ccc(-c2nc3ccccc3n2CCNS(=O)(=O)c2cc(C)ccc2C)cc1,nt,nt,-18,105
CCOc1ccc(S(=O)(=O)N2CCN(C)CC2)cc1-c1nc(C)no1,nt,nt,-15,108
CCn1nnc2c(N3c4ccccc4CC3C)ncnc21 (stereo not drawn),92,79,-34,103
N#CCc1nc(-c2ccc(F)c(F)c2)cs1,109,82,-2,116
# Going on with the list.
SMILES,Sa growth 42C,Sa growth 42C second temp,HCMV NEC inh,GIV-Gai inh
Cc1cc(=O)oc2n[nH]c(-c3ccccc3)c12,102,76,1,nt
Cc1ccsc1CN(C(=O)c1ccc(OCC(C)C)cc1)C1CCS(=O)(=O)C1 (stereo not drawn),111,84,-14,100
Cc1ccc(NC(=O)c2cc3ccccn3n2)cc1F,97,87,nt,102
COc1ccc(NC(=O)c2sc3ncnc(N4CCN(C)CC4)c3c2C)c(OC)c1,nt,nt,-24,103
O=C(/C=C/c1ccc(Br)o1)Nc1ccc(N2CCOCC2)cc1,88,90,-21,nt
CC(=O)Nc1cc(C(=O)NCc2ccc(F)cc2)ccc1Sc1ccc(C)cc1,106,84,nt,105
Cc1ccc(F)c2ncc3c(=O)n(-c4ccccc4Cl)[nH]c3c12,137,89,-41,nt
c1ccc(-c2cn(-c3ccccc3)c3ncnc(N4CCN(c5ccccc5)CC4)c23)cc1,93,87,nt,104
COc1ccc(-c2nn(CO)c(=S)n2-c2ccccc2)cc1,100,84,-43,nt
Cc1ccc(-c2cc(C(N)=O)on2)cc1,123,86,nt,101
c1csc(CNC23CC4CC(CC(C4)C2)C3)c1,98,88,-31,nt
Cc1cc(OCc2nc3c4ccccc4ncn3n2)cc(C)c1Cl,nt,nt,-8,101
Cc1cccc(C)c1-n1ncc(C(=O)NC2CCCC2)c1C1CCN(C(=O)OC(C)(C)C)CC1,100,86,nt,107
O=C(NN=C1C2CC3CC(C2)CC1C3)c1cccs1,96,92,1,94
CCn1c(C(=O)Nc2c(C)cccc2C)cc2sc(Cl)cc21,103,95,-10,101
Cc1nnc(SCC(=O)O)n1N,80,110,5,105
CCOC(=O)NCc1ccc2c(c1)cc(C)n2C,86,89,1&-1,106
COc1ccc(CCNC(=O)CSc2nnc(C)s2)cc1OC,102,100,-1,107
CC(C)NC(=O)CN1C(=O)C(C)CSc2ccc(S(=O)(=O)N3CCOCC3)cc21 (stereo not drawn),nt,nt,-20,105
CCOC(=O)c1c(SCC(=O)Nc2nc3ccccc3s2)nc(=O)[nH]c1C,110,98,nt,112&109
COc1ccc(NC(=O)CCNS(=O)(=O)c2cccc3nonc23)c(OC)c1,99,86,-70,102
O=C(CN1CCCCCC1=O)OCc1cc(Cl)cc2c1OCOC2,87,93,-22,nt
